# UCH37 DUB inh – inhibitors of human deubiquitinating enzyme UCH37; Q9Y5K5; purified proteasome/UCH37, Ub-AMC cleavage fluorescence; inhibition, % (no concentration beside the values); hit rate 0.33% among 330,000; AID 588478;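 active = mean of two replicates above 20%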;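 note: 0% = compound-free wells with enzyme and 100% = wells lacking proteasome; stock transfer was 100 nL into about 20 µL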
# Target sequence (Q9Y5K5 whole entry, looked up): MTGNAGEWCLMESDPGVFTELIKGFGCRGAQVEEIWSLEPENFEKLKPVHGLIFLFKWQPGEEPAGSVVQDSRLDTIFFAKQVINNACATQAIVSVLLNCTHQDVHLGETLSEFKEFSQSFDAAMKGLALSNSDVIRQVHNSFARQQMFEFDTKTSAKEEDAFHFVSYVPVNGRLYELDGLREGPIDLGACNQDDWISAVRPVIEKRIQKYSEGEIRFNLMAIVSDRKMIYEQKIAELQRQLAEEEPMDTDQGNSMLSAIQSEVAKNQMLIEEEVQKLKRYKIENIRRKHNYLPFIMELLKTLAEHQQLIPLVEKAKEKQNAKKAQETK
#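 Material: human UCH37 enzyme supplied as purified proteasome complex / Amount: 0.15 nM proteasome as dispensed / Buffer or medium: pH 7.4 Tris-HCl (50 mM) with ovalbumin, ATP-MgCl2, DTT / Times: preincubation 30 min, reaction 25 min, room temperature / Technique: AMC fluorescence from Ub-AMC cleavage, excitation 355 nm, emission 460 nm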
# Calb FLC – C. albicans growth modulation with fluconazole; C. albicans CaCi-2 (fluconazole-resistant clinical isolate) + fluconazole, Alamar Blue growth, 48 h; growth inhibition, % (concentration not given with the values); hit rate 0.57% among 300,000; AID 1979;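 active = most replicates above 75%; inconclusive = exactly half above 75%; inactive = most below 75%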;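 note: all wells also contain fluconazole at 8 µg/ml as a sub-toxic cotreatment; 0% = median of DMSO wells and 100% = median of geldanamycin control wells; wells of about 8 µL received 7.5 nL stock; the first replicate is given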
# LANA-H2A inh – blocks KSHV LANA binding to histone H2A/H2B | cell-free LANA-H2A/H2B peptide, fluorescence polarization | inhibition, % (no concentration beside the values) | hit rate 0.6% among 320,000 | AID 2629; in the data active = inhibition mostly above about 10%, no sharp cut-off; inactive = mostly below about 6.7%;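 note: stock transfer was 7.5 nL into about 10 µL; 0% = median of vehicle wells and 100% = median of positive control wells; one replicate is shown; the record names a cut of 25% in any replicate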
# Bfl-1 A1 inh – inhibitors of the anti-apoptotic protein A1, read as caspase activation | MEF A1-2A-BIM cells, Caspase-Glo 3/7 luminescence, 3 h; percent of clofoctol response, vehicle zero | caspase activation, % (concentration not given with the values) | hit rate 0.066% among 330,000;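 active = over half of replicate activation scores above 10%, or exactly half above 10 with the replicate mean above 10; inconclusive = replicate mean below 10 yet half the replicates above 10; inactive = over half of replicates below 10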;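 note: wells of about 30 µL received 50 nL stock; many hits fall short of the cut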
# RanGTP-Imp inh – inhibitors of RanGTP-importin-beta interaction, primary screen, biochemical, FRET, CFP-Ran, YFP-importin-beta, homogeneous | cell-free CFP-Ran/YFP-importin-beta FRET ratio | AID 2216 | inhibition, % (test concentration not listed) | hit rate 1.1% among 300,000;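 active = most replicates above 15%; inconclusive = exactly half above 15%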;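 note: 0% = DMSO wells and 100% = Ran loaded with GDP instead of GTP; wells of about 40 µL received 100 nL stock; the first replicate is given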
# Beta2AR agonist – human beta-2 adrenergic receptor agonism by FAP | P07550 | Am2.2-beta2AR cells, FAP receptor internalization, flow cytometry; reference of the scale not given here | response, % (test concentration not listed) | hit rate 0.43% among 340,000;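 active = response above a set limit, near 3 SD of response in nonfluorescent compounds, cut at about 42% in these data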;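 note: stock transfer was 100 nL into about 11 µL; a reference agonist was the positive control; negative values mostly stem from fluorescent compounds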
# Target sequence (P07550 whole entry, looked up): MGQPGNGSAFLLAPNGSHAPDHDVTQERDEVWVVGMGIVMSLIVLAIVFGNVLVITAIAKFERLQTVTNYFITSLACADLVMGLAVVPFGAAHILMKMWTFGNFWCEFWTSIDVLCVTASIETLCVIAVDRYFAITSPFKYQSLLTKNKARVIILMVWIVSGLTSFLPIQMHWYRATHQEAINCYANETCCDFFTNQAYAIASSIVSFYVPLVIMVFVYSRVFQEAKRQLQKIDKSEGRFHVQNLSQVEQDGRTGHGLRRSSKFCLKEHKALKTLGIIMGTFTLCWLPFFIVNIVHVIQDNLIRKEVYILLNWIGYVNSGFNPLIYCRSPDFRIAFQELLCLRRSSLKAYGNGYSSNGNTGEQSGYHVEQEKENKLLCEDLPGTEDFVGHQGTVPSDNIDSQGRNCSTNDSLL
# T cruzi repl – blocks replication of Trypanosoma cruzi. T. cruzi beta-gal in NIH3T3, luminescence, 90 h. inhibition, % (test concentration not listed). hit rate 1.4% among 300,000;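 active = mean inhibition across valid replicates above about 55%, limit read from the data; inconclusive = mean below that limit but half or more replicates reach it; inactive = mean below it, under half of replicates reach it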;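 note: signal also drops with host cell toxicity which is not excluded here; 0% = plate median of DMSO wells and 100% = zero luminescence signal; higher percent means less beta-gal luminescence so fewer parasites; stock transfer was 50 nL into about 50 µL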
# Beta cell apopt – blocks beta cell apoptosis; INS-1E cytokine-induced death, ATP luminescence, 48 h; percent of positive-control rescue, neutral wells zero; protection from apoptosis, % (no concentration beside the values); hit rate 0.8% among 300,000; AID 435005;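 active = all replicates at 75% or more, or half of them and the mean; inconclusive = half reach 75% but not the mean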;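 note: 0% = cytokine-treated negative control wells and 100% = positive control rescue; higher means more ATP so stronger rescue from cytokine killing; wells of about 40 µL received 100 nL stock; the first replicate is given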
# Numbers without * were called inactive; i = inactive; ? = inconclusive; . = not tested or not shown.
# The first two compounds (preview)
1) O=C(Nc1nc(-c2ccccn2)cs1)c1cc(Cl)ccc1[N+](=O)[O-]
2) COc1ccc(N(C(=O)C2CCCCC2)S(=O)(=O)c2cccc3cccnc23)cc1

entry no.	1	2
LANA-H2A inh	2.6	5.2
Bfl-1 A1 inh	-0.3	-0.3
Beta cell apopt	93*	-27
UCH37 DUB inh	2.7	1.4
Beta2AR agonist	34	-3
T cruzi repl	64*	10
RanGTP-Imp inh	-2.1	-1.3
Calb FLC	-2	?

# Results, from the first entry:
1) O=C(Nc1nc(-c2ccccn2)cs1)c1cc(Cl)ccc1[N+](=O)[O-]
2) COc1ccc(N(C(=O)C2CCCCC2)S(=O)(=O)c2cccc3cccnc23)cc1
3) O=C1CN(C(=O)CN2CCOCC2)C(c2ccccc2)c2cc(Br)ccc2N1 (stereo not given)
4) Cc1ccc(C(=O)N(c2ccccn2)C(C)c2ccco2)cc1C (stereo not given)
5) CCOC(=O)C1C(=O)OC(C)(C)C1C(C)C(=O)c1ccc(C)cc1 (stereo not given)
6) N#Cc1ccc(-c2ccc(OCC(O)CN3CCOCC3)cc2)cc1 (stereo not given)
7) Cc1ccc(S(=O)(=O)N2CCN(C(=O)c3cc4c(C)nn(-c5ccccc5C)c4s3)CC2)cc1
8) CCc1nn(CC(=O)N2CCN(c3ccc(F)cc3)CC2)c(=O)c2cc3occc3n12

entry no.	1	2	3	4	5	6	7	8
LANA-H2A inh	2.6	5.2	-2.0	-4.8	-8.5	-20	2.7	-1.1
Bfl-1 A1 inh	-0.3	-0.3	1.8	-7.6	-0.5	-0.6	-0.5	0.7
Beta cell apopt	93*	-27	.	9	5	-4	16	-4
UCH37 DUB inh	2.7	1.4	7.0	0.7	-1.9	-8.0	-0.7	1.2
Beta2AR agonist	34	-3	0	4	1	-9	-8	1
T cruzi repl	64*	10	-1	14	0	1	35	7
RanGTP-Imp inh	-2.1	-1.3	-0.9	2.4	-0.3	0.3	4.8	1.7
Calb FLC	-2	?	7	-2	2	-11	8	-6

9) Cn1cc(C(=O)N2CCN(c3ccccc3)CC2)c(=O)c2cc(S(=O)(=O)N3CCCC3)ccc21
10) Cc1ccc(CNC(=O)C(C)OC(=O)c2cccs2)cc1 (stereo not given)
11) O=C(C1=C[C@H](C2CCCCC2)C[C@H](OCCCCO)O1)N1CCN(Cc2ccccc2)CC1
12) CN(Cc1ccccc1)C(=O)c1[nH]cnc1C(=O)NCC(=O)OCc1ccccc1
13) O=C(Nc1nc2c(F)cc(F)cc2s1)C1CC1
14) O=C(c1ccccc1)n1c(=S)nc2ccccn21
15) COCn1cnc(-c2ccccc2)c1-c1ccccc1
16) CCOC(=O)C1=C(C)NC(=S)NC1c1ccc(OCC(=O)N2CCCCCC2)c(OC)c1 (stereo not given)

entry no.	9	10	11	12	13	14	15	16
LANA-H2A inh	-2.9	1.5	2.6	-0.1	-3.4	-7.4	7.8	3.1
Bfl-1 A1 inh	-0.7	0.0	-0.4	-0.4	?	-5.4	-0.8	0.8
Beta cell apopt	-7	0	.	-4	2	27	-5	2
UCH37 DUB inh	4.8	0.9	2.2	2.1	2.1	3.6	2.9	1.6
Beta2AR agonist	12	16	-11	-6	1	-11	-4	0
T cruzi repl	-21	3	30	-11	58*	0	-8	10
RanGTP-Imp inh	1.6	-3.2	4.6	-1.3	3.7	-1.4	-2.5	-0.7
Calb FLC	-4	5	9	2	1	0	-4	-1

17) CCOC(=O)CCC(=O)N1CCOCCOCCOCC1
18) O=C(NCc1ccco1)c1nc2c(nnn2Cc2ccccc2Cl)c(=O)[nH]1
19) Cc1cnc([N+](=O)[O-])n1CCOC(=O)NC(=O)c1ccccc1
20) Cc1ccsc1/C=C(\C#N)C(=O)NCc1cccnc1
21) COC(=O)[C@H](Cc1ccccc1)NC(=O)N1CCN(c2ccccc2)CC1
22) CCn1c(=O)cc(SCC(=O)NCc2ccc3c(c2)OCO3)c2ccccc21
23) CCCC(=O)N(CCN(Cc1ccccc1)C(=O)CCC)Cc1ccccc1
24) O=C(CN(Cc1ccco1)C(=O)c1ccc(F)cc1)Nc1ccccc1Br

entry no.	17	18	19	20	21	22	23	24
LANA-H2A inh	2.7	-3.7	3.8	0.8	0.7	2.7	-1.4	-4.4
Bfl-1 A1 inh	0.3	0.2	0.1	2.2	0.3	-1.2	-0.2	-0.7
Beta cell apopt	7	10	-8	-7	-3	-10	25	1
UCH37 DUB inh	-0.8	5.3	3.9	14	2.9	4.6	7.0	1.5
Beta2AR agonist	-2	22	7	-4	11	9	-15	1
T cruzi repl	-17	10	-4	8	2	5	13	.
RanGTP-Imp inh	-3.1	4.1	0.0	0.8	2.9	-1.6	-1.1	.
Calb FLC	-8	27	3	13	17	-37	-6	.

25) CC(C)n1c(N2CCN(CC(=O)Nc3ccc4c(c3)OCCO4)CC2)nc2ccccc21
26) CCCN(CC(=O)Nc1ccccc1C)C(=O)c1ccc(C)c(S(=O)(=O)N2CCCCC2)c1
27) Cc1ccc(Nc2cc(C)nc3ccc(C)cc23)cc1
28) Cc1ccc(NC(=O)/C(=C\c2cccs2)NC(=O)c2ccccc2)cc1
29) CCc1noc(C)c1C(=O)N1CCN(S(=O)(=O)c2ccc(C(C)=O)cc2)CC1
30) O=C(c1cccc(S(=O)(=O)Nc2cccc(C(F)(F)F)c2)c1)N1CCCCC1
31) Clc1ccc2[nH]cc(-c3nnnn3-c3ccc4ccccc4c3)c2c1
32) CCc1ccc(NC(=O)C(C)Sc2nnc(CN3CCCC3)o2)cc1 (stereo not given)

entry no.	25	26	27	28	29	30	31	32
LANA-H2A inh	0.4	-1.4	-4.8	0.9	.	-0.5	-4.0	-5.0
Bfl-1 A1 inh	0.9	1.2	0.5	1.3	-0.1	0.2	-0.8	0.2
Beta cell apopt	-2	0	42	-1	-6	-1	31	-4
UCH37 DUB inh	3.7	2.9	4.4	7.0	-1.3	-0.3	4.4	1.6
Beta2AR agonist	-1	-15	-1	8	-4	1	-9	-2
T cruzi repl	1	7	52	1	-2	1	69*	.
RanGTP-Imp inh	-2.0	0.1	4.8	1.1	6.8	0.3	-241	.
Calb FLC	-12	-1	-3	-20	-4	10	9	.

33) Cc1cc(/C=C(/C#N)c2nc3ccccc3[nH]2)c(C)n1-c1ccccc1C(=O)O
34) Cc1cc(=S)[nH]c(=S)[nH]1
35) CC(C)C(=O)Nc1nnc(SCC(=O)N2C(C)CCCC2C)s1 (stereo not given)
36) COC(=O)COc1ccc2c(c1)O/C(=C\c1ccco1)C2=O
37) CC(C)(C)NC(=O)c1cccc2c1-c1ccccc1C2=O
38) CN1N=C(C(=O)NC2CCCc3c2cnn3-c2ccc(F)cc2F)CCC1=O (stereo not given)
39) COC(=O)c1c(C)[nH]c(C(=O)/C=C/c2ccc(C)cc2)c1C
40) Cc1cc(=O)oc2c3c(cc(OCC(=O)NCCCn4ccnc4)c12)OC(C)(C)CC3

entry no.	33	34	35	36	37	38	39	40
LANA-H2A inh	-0.2	20	-5.3	3.4	-5.1	4.6	1.1	4.1
Bfl-1 A1 inh	1.7	-0.3	0.5	-0.6	1.1	1.0	-2.0	-0.5
Beta cell apopt	-7	-4	-3	5	.	2	1	7
UCH37 DUB inh	0.4	11	-0.6	-8.3	7.3	1.0	-28	i
Beta2AR agonist	-3	3	-3	14	0	4	-2	-12
T cruzi repl	-14	-11	-1	-9	4	-7	16	11
RanGTP-Imp inh	-2.8	1.8	1.5	18*	4.3	?	3.4	7.7
Calb FLC	4	0	0	-4	3	0	2	-4

# Part of the list above, with bars between the fields.
entry | Compound | LANA-H2A inh | Bfl-1 A1 inh | Beta cell apopt | UCH37 DUB inh | Beta2AR agonist | T cruzi repl | RanGTP-Imp inh | Calb FLC
35 | CC(C)C(=O)Nc1nnc(SCC(=O)N2C(C)CCCC2C)s1 (stereo not given) | -5.3 | 0.5 | -3 | -0.6 | -3 | -1 | 1.5 | 0
40 | Cc1cc(=O)oc2c3c(cc(OCC(=O)NCCCn4ccnc4)c12)OC(C)(C)CC3 | 4.1 | -0.5 | 7 | i | -12 | 11 | 7.7 | -4

# Other records follow.
41) O=C1/C(=C/c2cccc(F)c2)CSc2sccc21
42) CC(=O)c1c(C)[nH]c(-c2ccccc2)nc1=S
43) O=C(N/N=C\c1ccccc1)c1cccc(C(=O)N/N=C\c2ccccc2)n1
44) CC(C)Oc1ccc2c3c(c(=O)oc2c1)CCC3
45) O=C(N/N=C/c1ccoc1)c1cc(O)cc(O)c1
46) Oc1ccc(-c2ccccc2)cc1CN1CCCCCC1
47) O=C(CN1C(=O)c2cccc3cccc(c23)C1=O)N1CCCCCC1
48) CC(=O)/C(=C\Nc1ccc(OCc2ccccc2)cc1)c1ccccc1

entry no.	41	42	43	44	45	46	47	48
LANA-H2A inh	.	9.3	-11	4.4	-2.3	-1.3	-4.1	-2.7
Bfl-1 A1 inh	-0.2	-0.5	-0.6	0.4	-0.2	1.6	-0.8	1.0
Beta cell apopt	-5	2	.	8	3	6	-5	0
UCH37 DUB inh	4.7	2.4	.	-74	.	-0.1	-95	2.4
Beta2AR agonist	-10	4	4	-5	-5	-16	0	-10
T cruzi repl	13	3	-29	5	-3	-5	-3	7
RanGTP-Imp inh	?	5.0	1.1	3.0	0.1	3.8	-1.2	-3.3
Calb FLC	19	-2	0	-8	-2	-10	-20	-4

49) Cc1cccc(NC(=O)CSc2nncn2-c2ccccn2)c1
50) COc1ccc(OC)c(NC(=O)C2C3CCC(C3=C(C)C)C2C(=O)O)c1 (stereo not given)
51) O=C(Nc1ccccc1)c1ccc(-n2cnnn2)cc1
52) O=C1CCN(CCc2ccccc2)CCN1CCSc1ccccc1
53) O=C(N/N=C/c1ccc(COc2ccc(Br)cc2)o1)c1ccc2c(c1)OCO2
54) CCOC(=O)N1CCN(C(=O)C(C)N(c2ccc(Oc3ccccc3)cc2)S(C)(=O)=O)CC1 (stereo not given)
55) Cc1cc(/C=N/n2cnnc2)c(C)n1-c1ccc(OCc2ccc(Cl)cc2)cc1
56) [O-][N+]1=c2ccc(Nc3ccccc3)cc2=NC12CCCCC2
57) O=C(NCc1ccc(Cl)cc1)C1CCC(=O)N(C2CC2)C1 (stereo not given)

entry no.	49	50	51	52	53	54	55	56	57
LANA-H2A inh	0.8	4.7	-2.6	-4.3	.	7.8	-1.0	3.9	3.7
Bfl-1 A1 inh	0.6	0.8	0.5	1.4	.	1.2	-0.4	0.2	0.7
Beta cell apopt	-7	-7	3	-1	.	8	122*	107*	-4
UCH37 DUB inh	-1.3	2.1	-1.9	1.0	.	0.7	.	13	2.7
Beta2AR agonist	-19	-5	0	-5	-4	-14	-3	-6	-2
T cruzi repl	-12	6	-24	-1	20	3	13	-32	-10
RanGTP-Imp inh	-14	-1.4	-1.8	-1.4	-4.7	4.9	1.2	-5.2	2.4
Calb FLC	-12	-4	-5	-13	4	-5	5	108*	39

# Taken from above.
# Beta2AR agonist result of `COCn1cnc(-c2ccccc2)c1-c1ccccc1` → -4
# RanGTP-Imp inh result of `Clc1ccc2[nH]cc(-c3nnnn3-c3ccc4ccccc4c3)c2c1` → -241

# Bioassay records as filed in PubChem BioAssay.

# This is a random part of the collection; overall some 4.3% were active at least once.
